Compound activity: PubChem BioAssay, Broad Institute
MITF inh: inhibitors of MITF; TRPM1 promoter luciferase, luminescence, 24 h; 37,000 tested, 0.28% active; inhibition, % (no concentration beside the values);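 active means most replicates at 85% or more, or half of them and the mean; inconclusive means half reach 85% but not the mean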;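 further: human melanocyte line stably carrying TRPM1 promoter luciferase reporter; 0% = vehicle wells and 100% = a positive control; the first replicate is given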
Shh pathway inh: Sonic Hedgehog pathway inhibition; Shh-LIGHT2 Gli-luciferase reporter, 30 h; inhibition, % (test concentration not listed); 22,000 tested, 2.1% active;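 active means replicate mean of 65% or more; inconclusive means mean lower but half the replicates past it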;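 further: pathway switched on by Shh-conditioned medium diluted 1 in 25 in low serum; 100 nL library stock added to about 40 µL; 0% = median of neutral wells and 100% = positive control level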
PD-1 reverse act: reversal of PD-1 mediated T-cell inhibition; primary human CD4 T cells, PD-L1 beads, CellTiter-Glo 96 h; 29,000 tested, under 10 active; AID 2316; activation, % (no concentration beside the values);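 active means replicate mean of 50% or more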;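 further: 0% = median vehicle wells and 100% = positive control; 100 nL library stock added to about 50 µL; numbers are from one replicate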
YB-1 expression: YB-1 expression inhibition | U2OS, qRT-PCR YB-1 vs CDIP delta delta Cp, 16 h; hits give high values; zero = DMSO, each unit about twofold | delta delta Cp (YB-1 minus CDIP) (no concentration beside the values) | 30,000 tested, 0.37% active;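 active means delta delta Cp rounded down to an integer at or above 3, about 3 SD of DMSO wells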;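 further: higher means less YB-1 transcript or more CDIP transcript relative to DMSO; stock transfer was 100 nL into about 100 µL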
An asterisk follows results filed as active; ? = inconclusive; . = not tested or not shown. Not all compounds are listed, so the mix of outcomes need not match the whole.

SMILES | MITF inh | Shh pathway inh | PD-1 reverse act | YB-1 expression
COc1cc(O)c(CCO)c2c1C(=O)C[C@@H](C)O2 | 1 | 4 | -1.0 | -0.048
C[C@@H]1CN([C@@H](C)CO)C(=O)c2cccc(N(C)C)c2O[C@@H]1CN(C)Cc1ccc(Oc2ccccc2)cc1 | 1 | -8 | -0.2 | -0.61
CO[C@@H]1[C@@H](OC(N)=O)[C@@H](O)C(Oc2ccc3c(O)c(NC(=O)c4ccc(O)c(CC=C(C)C)c4)c(=O)oc3c2C)OC1(C)C (stereo not given in full) | -31 | -33 | . | 0.62
C=C(C(=O)O)C(CCCCC(C)O)C(=O)O (stereo not given) | 0 | -3 | 1.2 | 0.12
COc1cc(NC(=S)NCc2ccco2)c(OC)cc1Cl | -29 | . | -1.7 | .
COC1=CC(=O)O[C@@H](/C=C/c2ccccc2)[C@@H]1O | 5 | -15 | 4.0 | -0.12
Nn1c(C(=O)NCc2cccnc2)nc2ccccc2c1=O | 22 | -8 | 0.0 | 0.26
C[C@@H]1CN([C@@H](C)CO)C(=O)c2cc(NS(=O)(=O)c3ccc(F)cc3)ccc2O[C@H]1CN(C)Cc1ccc(C(=O)O)cc1 | 0 | . | 0.2 | 0.13
C[C@@H]1CN([C@H](C)CO)C(=O)Cc2cc(NC(=O)C3CCCCC3)ccc2O[C@@H]1CN(C)Cc1ccc(Oc2ccccc2)cc1 | 39 | 70* | -5.3 | 0.11
C[C@H](CO)N1C[C@H](C)[C@H](CN(C)S(=O)(=O)c2ccccc2)Oc2ccc(N(C)C)cc2C1=O | 5 | -24 | -1.2 | 0.1
CC1CN=C(N(C(=O)Nc2ccccc2)c2cccc(C(F)(F)F)c2)S1 (stereo not given) | -30 | -15 | -2.7 | 0.56
CNC[C@@H]1Oc2ccc(NC(=O)Nc3ccccc3)cc2C(=O)N([C@@H](C)CO)C[C@H]1C | 7 | -21 | 0.4 | -0.27
Cc1noc(C)c1NC(=O)Nc1cccc2c1O[C@H](CN(C)Cc1ccc(C(=O)O)cc1)[C@@H](C)CN([C@@H](C)CO)C2=O | 10 | -106 | 0.9 | 0.43
Cc1ccc(S(=O)(=O)Nc2ccc3c(c2)CC(=O)N([C@H](C)CO)C[C@@H](C)[C@@H](CN(C)Cc2ccc(C(=O)Nc4ccccc4N)cc2)O3)cc1 | 0 | . | 0.4 | 0.18
COc1ccc(-n2nnnc2SCC(=O)Nc2ccc(F)cc2F)cc1 | 1 | . | 1.2 | .
Cn1c(=O)c2c(nc(NCc3cccnc3)n2Cc2c(F)cccc2Cl)n(C)c1=O | -21 | . | -0.4 | .
C[C@H]1CN([C@@H](C)CO)C(=O)c2cccc(NS(=O)(=O)c3ccccc3)c2O[C@@H]1CN(C)C(=O)Nc1ccc2c(c1)OCO2 | 11 | -38 | 0.1 | -0.41
COc1ccc(NC(=O)Nc2ccc3c(c2)CC(=O)N([C@@H](C)CO)C[C@H](C)[C@H](CN(C)Cc2ccncc2)O3)cc1 | -4 | 24 | -0.9 | -0.099
COc1ccc(NC(=O)Nc2ccc3c(c2)CC(=O)N([C@H](C)CO)C[C@H](C)[C@H](CN(C)Cc2ccc(C(=O)O)cc2)O3)cc1 | -13 | -16 | . | 0.24
CC(=O)Nc1nc2ccccc2s1 | -10 | -52 | -0.2 | 0.1
O=C(O[C@H]1[C@H](Oc2ccccc2COC(=O)C2(O)C=CCCC2=O)O[C@H](CO)[C@@H](O)[C@@H]1O)c1ccccc1 (stereo not given in full) | 31 | 53 | -4.1 | 1.6
CNC(=O)C(=O)NCCc1c[nH]c2ccccc12 | -16 | . | 5.0 | .
COc1ccc(CN(C)C[C@@H]2Oc3ccc(NC(=O)Nc4ccc(OC)cc4)cc3C(=O)N([C@H](C)CO)C[C@@H]2C)cc1 | 5 | -16 | 0.6 | -0.12
CC(C)=CCc1c(O)cc2oc3c(CC=C(C)C)c(O)c(O)c(CC=C(C)C)c3c(=O)c2c1O | . | 103* | . | -0.79
C[C@H]1CN([C@@H](C)CO)C(=O)c2cc(NS(=O)(=O)c3cccs3)ccc2O[C@H]1CN(C)Cc1ccncc1 | 6 | 0 | 0.0 | -0.38
CC(C)NC(=O)N(C)C[C@H]1Oc2ccc(NC(=O)Cc3ccccc3)cc2CC(=O)N([C@@H](C)CO)C[C@H]1C | -5 | -20 | 0.1 | 0.2
Cc1noc(C)c1NC(=O)N(C)C[C@@H]1Oc2ccc(NC(=O)Cn3cnnn3)cc2CC(=O)N([C@H](C)CO)C[C@@H]1C | -19 | -32 | -0.3 | -0.43
COc1cc(/C=C2/SC(=Nc3cc(C)cc(C)c3)NC2=O)cc(Br)c1OC | 10 | 6 | 2.4 | 0.03
Cc1cc(C(=O)NNCc2ccccc2)no1 | -18 | -23 | . | 0.24
Clc1ccc(COC(Cn2ccnc2)c2ccc(Cl)cc2Cl)cc1 (stereo not given) | 6 | -37 | . | -0.3
C[C@H](CO)N1C[C@H](C)[C@H](CN(C)C(=O)Nc2cccc3ccccc23)Oc2ccc(NC(=O)Nc3ccc4c(c3)OCO4)cc2C1=O | -5 | 24 | . | -0.13
C[C@H](CO)N1C[C@H](C)[C@H](CN(C)Cc2ccccc2)Oc2ccc(NS(C)(=O)=O)cc2C1=O | 0 | -11 | 0.7 | 0.38
C[C@H](CO)N1C[C@H](C)[C@H](CN(C)Cc2ccccc2)Oc2ccc(NS(=O)(=O)c3ccc(Cl)cc3)cc2C1=O | -16 | . | -0.3 | 6.1*
C[C@H]1CN([C@@H](C)CO)C(=O)c2cccc(NC(=O)Nc3ccc(C(F)(F)F)cc3)c2O[C@H]1CN(C)Cc1ccc(-c2ccccc2)cc1 | 3 | -22 | -4.0 | 0.37
C[C@@H]1CN([C@H](C)CO)C(=O)Cc2cc(NS(C)(=O)=O)ccc2O[C@H]1CN(C)Cc1ccc(Oc2ccccc2)cc1 | 7 | -24 | -2.7 | -0.2
C[C@H]1CN([C@@H](C)CO)C(=O)Cc2cc(NS(=O)(=O)c3cn(C)cn3)ccc2O[C@@H]1CN(C)S(=O)(=O)c1ccccc1 | -3 | ? | 1.0 | 0.24
CC(O)c1nc2ccccc2n1CCCOc1ccc(Cl)cc1 (stereo not given) | 4 | . | -1.4 | .
COc1cc2occ(-c3ccc(O[C@@H]4O[C@H](CO[C@@H]5OC[C@](O)(CO)[C@H]5O)[C@@H](O)[C@H](O)[C@H]4O)cc3)c(=O)c2c(O)c1OC | 5 | -13 | 1.8 | -0.44
C[C@H](CO)N1C[C@H](C)[C@H](CN(C)S(=O)(=O)c2ccc(F)cc2)Oc2ccc(NS(=O)(=O)c3ccc(F)cc3)cc2CC1=O | -15 | 18 | -0.8 | 0.06
FC(F)(F)C1=Nc2ccccc2N(c2ccc(Cl)c(Cl)c2)C1 | 7 | -10 | -7.2 | -0.14
C[C@H](CO)N1C[C@H](C)[C@@H](CN(C)Cc2ccc(C(F)(F)F)cc2)Oc2ccc(NC(=O)CCN3CCOCC3)cc2C1=O | -9 | 12 | . | 0.45
Cc1ccc(S(=O)(=O)NC(C)C(=O)Nc2ccc(C(N)=O)cc2)cc1 (stereo not given) | -16 | . | 1.8 | .
Cc1ccc(S(=O)(=O)Nc2cccc3c2O[C@@H](CN(C)Cc2ccc(-c4ccccc4)cc2)[C@H](C)CN([C@H](C)CO)C3=O)cc1 | 14 | -18 | 3.2 | 0.0086
COc1ccc(S(=O)(=O)Nc2ccc3c(c2)C(=O)N([C@H](C)CO)C[C@@H](C)[C@@H](CN(C)C(=O)NC2CCCCC2)O3)cc1 | 4 | . | -0.3 | -0.3
CC(C)NC(=O)Nc1cccc2c1O[C@@H](CN(C)Cc1ccc(C(F)(F)F)cc1)[C@H](C)CN([C@@H](C)CO)C2=O | 25 | -5 | -1.7 | -0.39
COC(=O)c1cc(OC)c(OC)cc1NC(=O)COc1cc(Cl)c(Cl)cc1Cl | 15 | . | -0.6 | .
Cc1cc2nn(-c3ccccc3)nc2cc1NC(=O)C(C)(C)Oc1ccc(Cl)cc1 | -59 | . | -0.1 | .
COc1ccc(S(=O)(=O)N(C)C[C@@H]2Oc3ccc(NC(=O)Nc4ccc5c(c4)OCO5)cc3C(=O)N([C@H](C)CO)C[C@@H]2C)cc1 | -28 | 5 | -0.5 | -0.43
Cc1ccc(S(=O)(=O)Nc2cccc3c2O[C@@H](CN(C)C(=O)Nc2ccc(C(F)(F)F)cc2)[C@H](C)CN([C@@H](C)CO)C3=O)cc1 | 2 | -4 | 1.0 | 0.29
CCOc1ccc2nc(SCC(=O)Nc3ccc4c(c3)OCCO4)[nH]c2c1 | -31 | . | 0.8 | .
C[C@@H]1CN([C@@H](C)CO)C(=O)c2cc(NC(=O)CCCN(C)C)ccc2O[C@H]1CN(C)S(=O)(=O)c1ccccc1 | 0 | -18 | 0.8 | -0.032
CCCC(=O)Nc1ncnc2c1ncn2[C@@H]1O[C@@H]2COP(=O)(O)O[C@H]2[C@H]1OC(=O)CCC | -9 | -21 | 3.7 | 0.44
C[C@@H]1CN([C@H](C)CO)C(=O)Cc2cc(NC(=O)CCCCCC(=O)Nc3ccccc3N)ccc2O[C@H]1CN(C)C(=O)Nc1cccc2ccccc12 | -16 | . | 2.4 | -0.18
COC(=O)c1c(NC(=O)CN(c2cc(C)ccc2C)S(C)(=O)=O)sc2c1CCCC2 | -2 | . | 2.1 | .
CC(C)NC(=O)N(C)C[C@H]1Oc2ccc(NC(=O)C3CC3)cc2CC(=O)N([C@@H](C)CO)C[C@@H]1C | -18 | 1 | -1.0 | -0.05
COc1ccc(N(C(C)C(=O)Nc2ccc(C(F)(F)F)cc2)S(C)(=O)=O)cc1 (stereo not given) | 3 | . | -1.0 | .
C[C@H](CO)N1C[C@H](C)[C@@H](CN(C)C(=O)Nc2cccc3ccccc23)Oc2ccc(NC(=O)Nc3ccc(C(F)(F)F)cc3)cc2C1=O | 3 | -12 | -1.9 | -0.18
O=C(O)C1CCCCC1C(=O)Nc1ccc(S(=O)(=O)N2CCOCC2)cc1 (stereo not given) | -15 | . | 2.4 | .
C[C@H](CO)N1C[C@H](C)[C@H](CN(C)Cc2ccc(C(F)(F)F)cc2)Oc2ccc(NS(=O)(=O)c3ccccc3)cc2C1=O | 0 | 11 | -2.7 | 0.072
C[C@@H]1CN([C@H](C)CO)C(=O)c2cccc(NS(=O)(=O)c3ccc(Cl)cc3)c2O[C@@H]1CN(C)C(=O)Nc1ccc(F)cc1 | 0 | -1 | -0.4 | 0.48

The final 5 records of the part before are carried over, then new ones follow.
SMILES | MITF inh | Shh pathway inh | PD-1 reverse act | YB-1 expression
COc1ccc(N(C(C)C(=O)Nc2ccc(C(F)(F)F)cc2)S(C)(=O)=O)cc1 (stereo not given) | 3 | . | -1.0 | .
C[C@H](CO)N1C[C@H](C)[C@@H](CN(C)C(=O)Nc2cccc3ccccc23)Oc2ccc(NC(=O)Nc3ccc(C(F)(F)F)cc3)cc2C1=O | 3 | -12 | -1.9 | -0.18
O=C(O)C1CCCCC1C(=O)Nc1ccc(S(=O)(=O)N2CCOCC2)cc1 (stereo not given) | -15 | . | 2.4 | .
C[C@H](CO)N1C[C@H](C)[C@H](CN(C)Cc2ccc(C(F)(F)F)cc2)Oc2ccc(NS(=O)(=O)c3ccccc3)cc2C1=O | 0 | 11 | -2.7 | 0.072
C[C@@H]1CN([C@H](C)CO)C(=O)c2cccc(NS(=O)(=O)c3ccc(Cl)cc3)c2O[C@@H]1CN(C)C(=O)Nc1ccc(F)cc1 | 0 | -1 | -0.4 | 0.48
Cc1ccc([N+](=O)[O-])cc1NC(=O)C1CCCN(S(=O)(=O)c2ccc(Cl)cc2)C1 (stereo not given) | -7 | . | 0.2 | .
COc1ccc(NC(=O)CSc2nncc3ccccc23)c([N+](=O)[O-])c1 | -22 | . | -1.8 | .
COc1ccc(NC(=O)Nc2ccc3c(c2)C(=O)N([C@H](C)CO)C[C@H](C)[C@@H](CN(C)S(=O)(=O)c2cccs2)OCCCC[C@@H](C)O3)cc1 | -20 | . | . | -0.24
C[C@H](CO)N1C[C@H](C)[C@@H](CN(C)S(=O)(=O)c2cn(C)cn2)Oc2ccc(NC(=O)Nc3cccc4ccccc34)cc2C1=O | 7 | . | 0.4 | -0.027
O=C(Cn1c(-c2cscn2)nc2ccccc21)Nc1ccccc1F | -2 | . | -1.8 | .
Cc1ccc(S(=O)(=O)Nc2cccc3c2O[C@@H](CN(C)Cc2ccc(C(F)(F)F)cc2)[C@@H](C)CN([C@@H](C)CO)C3=O)cc1 | 12 | 7 | -0.8 | 0.15
Cc1cc(NC(=O)CN(c2ccc(Cl)c(C(F)(F)F)c2)S(C)(=O)=O)ccc1Br | 50 | . | -11 | .

Of the compounds above, 3 contain an aryl thioether with sulfur outside any ring:
SMILES | MITF inh | Shh pathway inh | PD-1 reverse act | YB-1 expression
COc1ccc(-n2nnnc2SCC(=O)Nc2ccc(F)cc2F)cc1 | 1 | . | 1.2 | .
CCOc1ccc2nc(SCC(=O)Nc3ccc4c(c3)OCCO4)[nH]c2c1 | -31 | . | 0.8 | .
COc1ccc(NC(=O)CSc2nncc3ccccc23)c([N+](=O)[O-])c1 | -22 | . | -1.8 | .
